PV pol inh – poliovirus RNA polymerase inhibition; P03300; poliovirus polymerase elongation, fluorescence polarization; hits give low values; % elongation, % (compound at 16.7 µg/mL); 0.66% of 150,000 active; AID 588519; in the data active = % elongation below about 90%; note: some results filed as inactive read as strong as hits
Target sequence (P03300 1749-2209 limits assumed): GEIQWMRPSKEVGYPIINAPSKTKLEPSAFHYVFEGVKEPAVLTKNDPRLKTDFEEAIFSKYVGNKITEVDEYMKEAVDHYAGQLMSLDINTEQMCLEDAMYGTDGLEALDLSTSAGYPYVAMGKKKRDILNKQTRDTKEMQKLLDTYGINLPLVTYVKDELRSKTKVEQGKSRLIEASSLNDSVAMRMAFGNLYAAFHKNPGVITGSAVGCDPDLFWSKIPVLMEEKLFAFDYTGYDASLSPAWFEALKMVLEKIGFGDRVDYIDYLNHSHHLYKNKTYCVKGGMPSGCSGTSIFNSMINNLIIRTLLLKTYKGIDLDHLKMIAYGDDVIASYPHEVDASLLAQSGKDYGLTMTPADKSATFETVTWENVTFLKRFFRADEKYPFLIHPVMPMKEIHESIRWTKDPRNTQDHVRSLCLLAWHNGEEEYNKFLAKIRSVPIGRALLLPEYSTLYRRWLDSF
PV pol inh intensity – further read-out of PV pol inh, marked with its call; % elongation; measured here: total intensity read-out; formula for this scale not given here;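 total fluorescence in place of polarization; lower means less elongation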
* = called active by the depositor. The list is partial; count on the stated rates, not on these rows.

Values in the order – PV pol inh, PV pol inh intensity
1) Cc1cc(C)cc(NC(=O)C2CCCN(C(=O)c3cnn(-c4ccccc4)c3-n3cccc3)C2)c1 (centres undefined)
    107, 110
2) COc1cc(OC)cc(C(=O)Nc2cc3nn(-c4ccccc4)nc3cc2Cl)c1
    100, 100
3) COc1ccc2c(c1)sc1ncc(C(=O)NCc3cccc(C)c3)c(=O)n12
    109, 112
4) C=Cc1ccc(Cn2c(C(=O)O)c(CNCCc3ccccc3)c3ccc(C)cc32)cc1
    107, 116
5) Cc1cc(NC(=O)CSc2nc3c([nH]c4ccccc43)c(=O)n2-c2ccccc2)no1
    98, 107
6) O=C(CCCN1C(=O)C(c2ccccc2)Oc2cccnc21)Nc1ccc(Br)cc1F (centres undefined)
    106, 104
7) COc1ccc(C(=O)Nc2nc3ccc(S(=O)(=O)N4CCCC4)cc3s2)cc1
    108, 115
8) CCCCOc1ccc(S(=O)(=O)Nc2cccc(-c3ccc(N4CCOCC4)nn3)c2)cc1
    104, 97
9) Cc1oc(-c2cccc(Cl)c2)nc1CN1CCC(C(=O)NCCCN2CCN(c3ccccc3F)CC2)CC1
    109, 110
10) Cc1cc(C)cc(Oc2nc3c(c(=O)n(C)c(=O)n3C)n2Cc2ccc(F)cc2)c1
    108, 110
11) CCOc1ccccc1CNS(=O)(=O)c1csc(C(N)=O)c1
    101, 109
12) Cc1ccc2nc(-c3c[nH]c4ccccc34)c(Nc3ccccc3)n2c1
    106, 111
13) CCCSc1ncc(Cl)c(C(=O)Nc2ccc(S(=O)(=O)N3CCC(C)CC3)cc2)n1
    112, 109
14) Cc1cc(NS(=O)(=O)c2ccc(NC(=O)COc3ccc(Cl)cc3)cc2)nc(C)n1
    108, 106
15) CCOc1ccc(-c2nonc2NC(=O)COc2c(C)cc(C)cc2C)cc1OCC
    104, 100
16) CCOC(=O)c1ccc(N2C(=O)c3n[nH]c(-c4cccs4)c3C2c2cccc(F)c2)cc1 (centres undefined)
    106, 105
17) COc1ccccc1Cc1nc2ccccc2nc1SCC(=O)N1CCCc2ccccc21
    104, 109
18) COc1ccc(N2CCN(C(=O)c3ccc4c(c3)N(Cc3ccc(F)cc3)C(=O)c3ccccc3S4=O)CC2)cc1 (centres undefined)
    108, 106
19) CCC(C)NC(=O)c1ccc2c(c1)sc1nc(-c3ccc(OC)cc3)cn12 (centres undefined)
    109, 108
20) COc1ccc(CNC(=O)c2cc(=O)c3cc(C)ccc3o2)cc1
    101, 101

One compound at a time (already shown). Order of screens: PV pol inh, PV pol inh intensity
Listed for COc1ccccc1Cc1nc2ccccc2nc1SCC(=O)N1CCCc2ccccc21 → 104, 109
Listed for COc1ccc(N2CCN(C(=O)c3ccc4c(c3)N(Cc3ccc(F)cc3)C(=O)c3ccccc3S4=O)CC2)cc1 (centres undefined) → 108, 106

New compounds follow:
Values in the order – PV pol inh, PV pol inh intensity
21) Cc1ccc(C)c(NC(=O)Cn2c(SCC(=O)NCc3ccccc3)nc3ccccc32)c1
    100, 105
22) Cc1cc2[nH]c(=O)c(=O)[nH]c2cc1S(=O)(=O)N1CCN(c2cccc(Cl)c2)CC1
    107, 103
23) CCC1Oc2ccccc2N(CC(=O)NCc2ccccc2)C1=O (centres undefined)
    112, 107
24) CCOc1ccc(-c2cc3c(=O)n(CC(=O)NCc4ccc(C)cc4)ccn3n2)cc1
    106, 117
25) CCOC(=O)c1ccc(-c2ccc(/C=C(\C#N)C(=O)Nc3c(C)cccc3Cl)o2)cc1
    90, 212
26) CCOC(=O)c1ccccc1Nc1nc2ccc(C)cc2n2nnnc12
    110, 129
27) CCOc1ccc(NC(=O)CSc2oc(-c3ccc(C)cc3)nc2S(=O)(=O)c2ccc(C)cc2)cc1
    105, 100
28) O=C(Nc1cccc(Cl)c1)Nc1ccccc1OCc1cc(=O)n2ccccc2n1
    103, 107
29) CCCN1CCN(CCCNC(=O)c2cc3c(s2)-c2ccccc2OC3)CC1
    104, 105
30) COC(=O)c1ccc(NC(=O)CC2C(=O)N(c3cccc(C)c3)C(=O)N2C2CCCC2)cc1 (centres undefined)
    110, 101
31) COc1cc(S(=O)(=O)n2ccnc2C(C)C)ccc1Br
    100, 104
32) CCOc1ccc2c(c1)c(=O)c(C(=O)c1ccc3c(c1)OCO3)cn2Cc1ccc(F)cc1
    106, 110
33) COc1ccc(NC(=O)CSc2nc(-c3cccs3)cc(C(F)(F)F)n2)cc1OC
    104, 113
34) Cc1ccc(NC(=O)c2ccc(CN3CC(=O)N4CCCCC4C3=O)cc2)cc1 (centres undefined)
    111, 111
35) Cc1ccc(NS(=O)(=O)c2ccc3c(c2)[C@H]2C=CC[C@H]2[C@@H](c2ccc(F)cc2)N3)cc1C
    124, 164
36) Cc1cccc(Cn2c(SCc3ccc(C(=O)N4CCC(C)CC4)cc3)nc3ccncc32)c1
    103, 105
37) Cc1ccc(C)c(CNC(=O)C2CCCCN2S(=O)(=O)c2ccc(F)cc2)c1 (centres undefined)
    104, 88
38) CCc1ccc(C2=C(C)C(N3CCC(C(=O)Nc4cccc(OC)c4)CC3)=NS2(=O)=O)cc1
    103, 101
39) O=C(NC1CC(=O)N(c2ccc(F)cc2)C1)c1ccc(S(=O)(=O)N2CCOCC2)cc1 (centres undefined)
    108, 104
40) COc1ccc(CNC(=O)c2ccc3c(c2)nc2n3CCCCC2)cc1
    107, 103

5 successive compounds already listed, quoted:
Values in the order – PV pol inh, PV pol inh intensity
36) Cc1cccc(Cn2c(SCc3ccc(C(=O)N4CCC(C)CC4)cc3)nc3ccncc32)c1
    103, 105
37) Cc1ccc(C)c(CNC(=O)C2CCCCN2S(=O)(=O)c2ccc(F)cc2)c1 (centres undefined)
    104, 88
38) CCc1ccc(C2=C(C)C(N3CCC(C(=O)Nc4cccc(OC)c4)CC3)=NS2(=O)=O)cc1
    103, 101
39) O=C(NC1CC(=O)N(c2ccc(F)cc2)C1)c1ccc(S(=O)(=O)N2CCOCC2)cc1 (centres undefined)
    108, 104
40) COc1ccc(CNC(=O)c2ccc3c(c2)nc2n3CCCCC2)cc1
    107, 103

Following part.
Values in the order – PV pol inh, PV pol inh intensity
41) Cc1ccc(CNC(=O)CN(C)S(=O)(=O)c2ccc(Br)s2)cc1
    114, 108
42) CCOc1cc(CNCCSc2nnnn2-c2ccccc2)ccc1OC
    111, 105
43) Cc1cccc(N2CCN(C(=O)c3ccc4c(c3)N(Cc3cccc(Cl)c3)C(=O)c3ccccc3S4=O)CC2C)c1 (centres undefined)
    106, 105
44) Fc1cccc(-c2nnn3c2nc(NCc2ccc4c(c2)OCO4)c2ccccc23)c1
    106, 105
45) O=C(Nc1ccc(F)cc1)c1ncn(-c2ccccc2)n1
    109, 110
46) CCCCSCCCNC(=O)c1cn(CC)c2ccc(S(=O)(=O)N3CCOCC3)cc2c1=O
    106, 108
47) Cc1nn(CCC(=O)Nc2cccc(C#N)c2)c(C)c1S(=O)(=O)N1CCCCC1
    101, 106
48) COc1ccc(-c2nc3scc(CCNS(=O)(=O)c4cccc(C(C)=O)c4)n3n2)cc1
    109, 115
49) Cc1ccc(NC(=O)c2ccc3c(=O)n4nc(Nc5ccccc5C)sc4nc3c2)cc1C
    112, 112
50) O=C1c2oc3ccc(F)cc3c(=O)c2C(c2cccc([N+](=O)[O-])c2)N1CCCN1CCOCC1 (centres undefined)
    103, 102
51) CCc1ccc(NC(=O)CN(c2ccc(OC)cc2)S(=O)(=O)c2c(C)[nH]c(=O)[nH]c2=O)cc1
    99, 103
52) CCOC(=O)c1c(NC(=O)c2cc(-c3ccc(OC)c(OC)c3)on2)sc(C)c1C
    103, 104
53) COc1ccc2c(c1)c1c(c(=O)n(-c3cccc(C)c3)c(=O)n1CC(=O)NCCC1=CCCCC1)n2C
    107, 111
54) Cc1ccc(Cl)cc1NC(=O)CSc1nc2ccccc2c2nc(-c3ccccc3)nn12
    105, 98
55) COc1ccc(N2CCN(C(=O)COCc3cc(-c4ccc5c(c4)OCO5)on3)CC2)cc1
    113, 112
56) CCOC(=O)c1c(C)oc2ncnc(N3CCN(c4ccccc4F)CC3)c12
    102, 110
57) Cc1ccc(CNC(=O)Cn2ncc3c([nH]c4ccc(C)cc43)c2=O)cc1
    103, 111
58) CCOc1ccc(NC(=O)Cn2c(=O)n(CCCC(=O)NCCc3ccc(Cl)cc3)c(=O)c3ccccc32)cc1
    102, 102
59) CSc1ccc(/C=C/c2nc3ccccc3c(=O)n2-c2cccc(Cl)c2C)cc1
    110, 110
60) CCOC(=O)C(C)Sc1nnc2ccc3ccccc3n12 (centres undefined)
    103, 103

As entered above:
For PV pol inh, entry 57 has the entry 103
For PV pol inh intensity, entry 53 has the entry 111
For PV pol inh, entry 52 has the entry 103
For PV pol inh, entry 54 has the entry 105

New compounds follow:
Values in the order – PV pol inh, PV pol inh intensity
61) Cc1ccc(C(=O)Nc2c(-c3ccccc3)nc3ccccn23)cc1
    101, 102
62) CC(C)CC(=O)Nc1c(C(=O)N2CCN(c3ccccc3F)CC2)oc2ccccc12
    102, 109
63) CCOc1ccc(-c2nc(CSCC(=O)NCc3ccc(C)cc3)c(C)o2)cc1
    101, 111
64) CCc1ccc(OCC(=O)Nc2ccc(-c3nc4ncccc4o3)cc2)cc1
    106, 106
65) CCN1CCN(CCCNC(=O)Cn2c(-c3cccs3)cc3ccccc32)CC1
    112, 113
66) CCOC(=O)N1CCc2c(sc(NCc3ccc(OC)c(Br)c3)c2C(=O)Nc2cc(OC)ccc2OC)C1
    108, 100
67) CC(C(=O)NCc1cccc(Br)c1)n1ncn2cccc2c1=O (centres undefined)
    112, 115
68) COc1ccc(NC(=O)CCS(=O)(=O)c2cc3c4c(c2)CCN4C(=O)CC3)c(OC)c1
    106, 103
69) CCOc1ccc(CCNC(=O)Cn2nnc(-c3ccccc3Cl)n2)cc1OCC
    106, 107
70) COc1ccc(CCNC(=O)c2ccc(CS(=O)(=O)c3ccc(C)cc3)o2)cc1OC
    103, 104
71) CCOC(=O)c1c(NC(=O)/C=C/c2ccccc2)sc2c1CCCC2
    106, 114
72) Cc1ccc(CNc2ccc(-c3nc(-c4cccnc4)no3)cc2[N+](=O)[O-])cc1
    109, 113
73) CC(=O)c1ccc(NC(=O)Nc2nnc(N3CCCC(C)C3)s2)cc1 (centres undefined)
    101, 107
74) CC(C)c1cc(-c2nc(-c3ccccc3)no2)n[nH]1
    109, 115
75) O=C(Nc1ccc(N2CCC(N3CCCCC3)CC2)c(C(=O)O)c1)c1ccccc1
    105, 108
76) Cc1ccc(Cl)cc1NC(=O)Nc1nnc(N(C)Cc2ccccc2)s1
    104, 109
77) CCOC(=O)c1cc(S(=O)(=O)NCc2ccc(OC)cc2)[nH]n1
    105, 103
78) Cc1ccc(CCNC(=O)C2CCCN(Cc3nc(-c4cccc(Cl)c4)oc3C)C2)cc1 (centres undefined)
    106, 104
79) CCn1c(CN2CCN(C)CC2)nc2cc(NC(=O)c3cc(OC)c(OC)c(OC)c3)ccc21
    110, 104
80) CCCCOC(=O)c1ccc(NC(=O)/C(C#N)=C/c2ccc(C)o2)cc1
    108, 110
81) COc1cc(C2C(C(=O)Nc3ccccc3C)=C(C)Nc3nc(SCc4cc(C)ccc4C)nn32)ccc1O (centres undefined)
    109, 97
82) O=C(CSCc1nc2cccnc2n1C1CCCCC1)NCc1cccc(Cl)c1
    114, 118
83) CCOc1cc(C(=O)NCCc2csc(-c3ccc(C)cc3)n2)cc(OCC)c1OCC
    104, 104
84) O=C(c1ccc(CSc2nc3ccncc3n2Cc2ccccc2F)cc1)N1CCCCCC1
    103, 105
85) CCN(CC)C(=O)CSc1nnc2[nH]c(=O)cc(C)n12
    98, 104
86) CCOc1ccccc1NC(=O)Cn1c(=O)n(Cc2ccco2)c(=O)c2cccnc21
    105, 108
87) COc1ccc(NC(=O)c2noc3c2CCCC3)cc1Cl
    105, 110
88) COc1ccc(N2CC(NC(=O)COc3ccccc3F)CC2=O)cc1OC (centres undefined)
    107, 112
89) Cc1cccc(NC(=O)CSc2nc3c(c(=O)[nH]2)CN(Cc2ccc4c(c2)OCO4)CC3)c1C
    113, 115
90) CCN1CCc2c(sc(-n3cccc3)c2C(C)NC(=O)Nc2cc(Cl)c(OC)cc2OC)C1 (centres undefined)
    111, 112
91) O=C(C1CCCN(S(=O)(=O)c2cccc3nsnc23)C1)N1CCN(c2cccc(Cl)c2)CC1 (centres undefined)
    105, 107
92) COc1ccc(-c2onc(C)c2C)cc1S(=O)(=O)Nc1cc(Cl)ccc1C
    100, 103
93) COc1cccc(C(=O)NC2=NC(c3ccccc3F)CC(=O)N2)c1 (centres undefined)
    101, 108
94) Cc1ccc(NC(=O)CN2C(=O)COc3ccc(S(=O)(=O)NC4CCCC4)cc32)cc1Cl
    107, 116
95) C#CC(C)(CC)NC(=O)c1cc2c(n(-c3ccc(Cl)cc3)c1=O)CC(C)(C)CC2=O (centres undefined)
    103, 104
96) COc1ccc(OCc2ccc(-c3nc(C#N)c(NCc4cccnc4)o3)o2)cc1
    108, 108
97) CCOC(=O)C1CCCN(c2ncnc3c2cnn3-c2ccc(C)c(Cl)c2)C1 (centres undefined)
    102, 109
98) O=C(Nc1ccc(F)cc1)N1CCN(c2ccc3nnc(-c4ccc(F)cc4)n3n2)CC1
    110, 111
99) COc1ccc(NC(=O)CSC2=Nc3ccccc3C3=NC(CCC(=O)NCc4cccs4)C(=O)N23)cc1 (centres undefined)
    102, 101
100) COc1cc(-c2nc3nc(C)cc(C)n3c2Nc2ccc(Cl)cc2)ccc1O
    111, 121
101) O=c1c2ccccc2nc(/C=C/c2cccc3ccccc23)n1-c1ccc(Cl)cc1
    113, 108
102) COc1ccc(-c2cc(C(F)(F)F)n3nc(C(=O)Nc4cccc(C(F)(F)F)c4)c(Br)c3n2)cc1
    106, 113

Bioassay records: PubChem BioAssay, ICCB-Longwood Screening Facility, Harvard Medical School
